Screening data: PubChem, National Center for Advancing Translational Sciences (NCATS)
CtBP-E1A inh = inhibitors of CtBP/E1A interaction; AID 651724; 340,000 tested, 0.49% active; activity change, % (no concentration beside the values); AlphaScreen GST-E1A/His-CtBP binding, 1536-well; active compounds read low; control for the full effect not named in the record; in the data active means activity change below about -65%; inconclusive means about -30% to -65%; inactive means above about -30%; note: % is set by controls: 0 for no effect and ±100 for the full control effect
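Homogeneous bead-based format: GST-tagged E1A captured on glutathione donor beads, His-tagged CtBP on nickel acceptor beads; compounds precede bead addition by 2 h at 37 °C.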
Sfp PPTase inh = blocks B. subtilis Sfp PPTase activity; AID 1490; Biochemical Sfp PPTase activity, qHTS; Potency, µM, for the others: max response, negative = inhibition, usual class: inhibitors; 310,000 tested, 3.5% active; active = well fitted inhibition curve with a large enough effect; inconclusive = small, poorly fitted or top-dose-only effect, or another doubt; inactive = no such curve, though single readings can be large or run the other way;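 note: the enzyme is Sfp with the accession as filed and its product quenches rhodamine fluorescence; potency is the fitted concentration of half-maximal effect; 0% = enzyme reaction without inhibitor and -100% = no enzyme wells; top concentration of the series not given in the record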
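Sfp 15 nM + cpd, 15 min RT; start w/ rhodamine-CoA 5 uM, BHQ-2-YbbR 12.5 uM (final); 50 mM Hepes pH 7.6, 10 mM MgCl2, 0.01% NP-40, 0.01% BSA; read 525/598 nm at 0 and 30 min.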
Six1-Eya2 blk = blocks human Six1 binding to Eya2. AID 651725. AlphaScreen GST-Six1/His-Eya2 binding, biochemical; active compounds read low; control for the full effect not named in the record. 360,000 tested, 0.56% active. activity change, % (no concentration beside the values). Q15475+O00167; in the data active = activity change below about -65%; inconclusive = about -30% to -65%; inactive = above about -30%; note: % is set by controls: 0 for no effect and ±100 for the full control effect
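Homogeneous AlphaScreen proximity assay pairing GST-Six1 with His-tagged Eya2 (added as 5X mix: 250 nM and 500 nM) in 50 mM Tris pH 8.0, 300 mM NaCl, 1 mM TCEP. Glutathione donor and nickel acceptor beads; 1 h, 37 °C, dark.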
PINK1 expr mod = changes PINK1 expression | PINK1 immunofluorescence, high-content cytometry, 24 h | Potency, µM (doses to about 76.6 µM), inactives show top-dose activation (PINK1 increase), hits mostly activators | 410,000 tested, 0.2% active | AID 624263; active = well fitted activation curve with a large enough effect; inconclusive = small, poorly fitted or top-dose-only effect; inactive = flat fitted curve, though single readings scatter; cell line not stated here;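 note: potency is the fitted concentration of half-maximal effect; % of control where 0% means no effect; nearly all actives have a fitted effect of over 65% in size; a mitochondrial uncoupler was the plate control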
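Compound titrations (5 concentrations, 24 h) on a stable cell line; DMSO and CCCP controls. Endpoint: fixed-cell PINK1 immunofluorescence with mitochondrial, cell and nuclear markers, scanned by microplate cytometer.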
TRPV1 potentiator = human TRPV1 potentiation; Q8NER1; TRPV1-expressing cells, Fluo-8 calcium influx, capsaicin EC20 potentiation; host cell line not named in the record; control for the full effect not named in the record; potentiation, % at 8.33 µM; 320,000 tested, 0.02% active; AID 540277; active means potentiation above 80%; inconclusive means 30% to 80%; inactive means below 30%; note: 0% is about no effect
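Cells expressing TRPV1 were dye-loaded with Fluo-8 and read kinetically: 10 s baseline, 3 min after compound (agonist portion), then 2 min after EC20 capsaicin (allosteric enhancer portion). Calcium-bound dye fluorescence at 480/520 nm.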
D2 potentiator = human D2 receptor positive allosteric modulation; P14416; potentiation, % (test concentration not listed); 360,000 tested, 0.23% active; DiscoveRx D2 beta-arrestin cells, luminescence, 90 min; 100% = 57 uM dopamine signal; active = potentiation of 50% or more; inconclusive = 30% to 50%; inactive = 30% or less;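 note: compound concentration not given in the record; tested on top of an EC20 dose of dopamine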
Target sequence (P14416 whole entry, looked up): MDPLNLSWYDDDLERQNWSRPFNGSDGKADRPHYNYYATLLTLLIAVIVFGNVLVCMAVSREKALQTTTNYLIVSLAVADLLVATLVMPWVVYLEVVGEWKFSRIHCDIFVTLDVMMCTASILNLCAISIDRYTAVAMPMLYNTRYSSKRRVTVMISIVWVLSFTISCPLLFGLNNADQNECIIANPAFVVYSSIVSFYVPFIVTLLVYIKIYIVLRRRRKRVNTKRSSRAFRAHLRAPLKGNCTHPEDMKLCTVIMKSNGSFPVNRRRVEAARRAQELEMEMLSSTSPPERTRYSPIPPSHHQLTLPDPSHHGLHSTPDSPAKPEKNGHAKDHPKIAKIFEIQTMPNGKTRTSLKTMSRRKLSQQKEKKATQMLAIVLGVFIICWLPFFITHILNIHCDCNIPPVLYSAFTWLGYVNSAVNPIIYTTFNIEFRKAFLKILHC
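PathHunter D2 cells, attached overnight at 37 deg C, received compound in DMSO plus dopamine at EC20 (50 nM final) for 90 min at 37 deg C. Beta-arrestin recruitment was read as luminescence after 1 h with detection reagent at ambient temperature.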
D2 agonist = human D2 receptor agonism in beta-arrestin assay | DiscoveRx PathHunter D2 beta-arrestin, luminescence, 90 min; 100% = 57 uM dopamine signal | 360,000 tested, 0.084% active | P14416 | activation, % (concentration not given with the values); in the data active = activation above about 40%; inconclusive = about 15% to 40%; inactive = below about 15%; note: compound concentration not given in the record; the text of the record calls up to 30% inactive
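Agonist mode: compounds alone added to overnight-plated D2 PathHunter cells for 90 min at 37 C, with 57 uM final dopamine (EC100) defining full response. Beta-arrestin recruitment detected by chemiluminescent reagent, read after 1 h at ambient temperature.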
* = called active by the depositor; ? = inconclusive; · = not tested or not shown; [ ] = remark or other dose. Compounds were not picked by outcome (roughly 3.7% active in at least one column).

SMILES | CtBP-E1A inh | Sfp PPTase inh | Six1-Eya2 blk | PINK1 expr mod | TRPV1 potentiator | D2 potentiator | D2 agonist
Cn1nnnc1SCC1=C(C(=O)O)N2C(=O)C(NC(=O)C3CC3c3ccccc3)C2SC1 (stereo not given) | · | ? | -6 | -0.5% | -14 | -3 | -5.4
COc1cc(/C=C2/C(=O)N(c3ccc(C(=O)O)cc3)N=C2C)cc(OC)c1O | 2 | 40µM* | -7 | 3.7% | -4 | -3 | -2.9
Cc1nn(Cc2ccccc2)c(C)c1/C=N/NC(=O)CNc1cccc(C(F)(F)F)c1 | · | -1% | 4 | 0.3% | 6 | -10 | 14
Cc1ccc(CNC(=O)C2CCCN(c3nn4c(=O)cc(C)nc4s3)C2)cc1 (stereo not given) | -14 | -4% | 2 | 0.0% | 15 | -15 | -4.8
CCOc1ccc(CCNC(=O)c2nnn(CC(=O)Nc3ccc(OC)cc3)c2N)cc1OCC | 7 | 11% | 3 | 1.7% | -15 | -5 | 5.9
CCCN1CCC(N(CCc2ccccc2)Cc2ccccc2)CC1 | · | 2% | -7 | 4.2% | -10 | -4 | 4.6
O=C(CN(c1ccccc1)S(=O)(=O)c1ccc(F)cc1)N1CCCCCC1 | 4 | 0% | 6 | -0.2% | -14 | 1 | -1.6
CC(C)(C)OC(=O)NCc1ccc(CNC(=O)c2[nH]cnc2C(=O)NC2CCN(C(=O)OC(C)(C)C)CC2)cc1 | -4 | · | 1 | 12% | 0 | 14 | 4.3
CC(CCc1ccccc1)NC(=O)C1CC1 (stereo not given) | · | · | 3 | 0.1% | · | 3 | -1.8
O=C(Nc1ccc(Cl)cn1)C1CCN(S(=O)(=O)c2cccs2)CC1 | 4 | -9% | 3 | 1.0% | -1 | -5 | 0.8
Cc1nc(C(=O)NNC(=O)c2ccccc2Cl)c(C(F)(F)F)o1 | 3 | -25% | 2 | -1.7% | 11 | -2 | -0.6
Cc1cc(C)nc(SCc2ccc(C(=O)N/N=C/c3ccccc3C(=O)O)cc2)n1 | -19 | 29% | -8 | 1.1% | 17 | -3 | 1.7
Cc1cc(NC(=O)c2cc(CC(C)C)on2)n(-c2ccccc2)n1 | -1 | 13% | 1 | -0.3% | -10 | -6 | -5.9
COc1ccc(CC(=O)Nc2cccc(-c3nnc(-c4ccc(C)cc4)o3)c2)cc1OC | -1 | -19% | -1 | 15%[38.3 µM] | 9 | 19 | ?
O=C(CSCc1ccc(Br)cc1)Nc1ccc(S(=O)(=O)N2CCCCCC2)cc1 | 1 | -8% | -1 | 1.0%[38.3 µM] | 12 | -5 | 0.8
CCOC(=O)c1c(C)[nH]c(C(=O)CN2CCOCC2)c1C | -10 | 7% | -8 | 6.8%[38.3 µM] | -11 | 10 | -2.0
CC(C)CNC(=O)CN1C(=O)NC2(CCCc3ccccc32)C1=O (stereo not given) | 10 | 7% | -2 | 1.1% | 3 | -1 | -0.5
O=C1C2C3C=CC(C3)C2C(=O)N1Cc1ccccc1 (stereo not given) | 7 | 17% | 6 | -9.2%[38.3 µM] | 0 | -15 | -0.1
O=C(Cn1nc(-c2ccco2)ccc1=O)Nc1cc(Cl)ccc1Cl | -5 | 45µM* | 2 | -1.4% | 4 | -4 | 1.2
CC(C)(C)C(=O)Nc1nnc(SCC(=O)Nc2ccc3c(c2)OCO3)s1 | 1 | 1% | 5 | 3.0% | 8 | 8 | -2.4
CC(C)CN1CCN=C1N(C)C | 4 | · | 1 | 0.5% | 19 | -12 | 2.3
FC(F)(F)C(Oc1nc(NC2CCCCC2)nc(N2CCOCC2)n1)C(F)(F)F | -6 | 24% | 7 | 6.1% | 1 | -7 | -1.0
N#Cc1c(N)n(CCNC(=O)c2ccccc2)c2nc3ccccc3nc12 | ? | -15% | ? | -0.2% | -2 | -1 | -1.2
CCOC(=O)c1[nH]c2ccc(C)cc2c1N=C(C)N(C)C | -3 | 2% | 3 | -1.8% | -6 | 18 | -2.4

Molecules listed so far that have an NH in an aromatic ring (3):
SMILES | CtBP-E1A inh | Sfp PPTase inh | Six1-Eya2 blk | PINK1 expr mod | TRPV1 potentiator | D2 potentiator | D2 agonist
CC(C)(C)OC(=O)NCc1ccc(CNC(=O)c2[nH]cnc2C(=O)NC2CCN(C(=O)OC(C)(C)C)CC2)cc1 | -4 | · | 1 | 12% | 0 | 14 | 4.3
CCOC(=O)c1c(C)[nH]c(C(=O)CN2CCOCC2)c1C | -10 | 7% | -8 | 6.8%[38.3 µM] | -11 | 10 | -2.0
CCOC(=O)c1[nH]c2ccc(C)cc2c1N=C(C)N(C)C | -3 | 2% | 3 | -1.8% | -6 | 18 | -2.4

(continued)
SMILES | CtBP-E1A inh | Sfp PPTase inh | Six1-Eya2 blk | PINK1 expr mod | TRPV1 potentiator | D2 potentiator | D2 agonist
COC(=O)C1CCCN1C(=O)C12CC3CC(CC(C3)C1)C2 (stereo not given) | -2 | 17% | 14 | 0.0% | 19 | -3 | 7.8
O=C(CSC1CC(=O)N(CC(c2ccccc2)c2ccccc2)C1=O)Nc1ccc(Cl)cc1 (stereo not given) | 5 | 27% | 3 | 8.3% | -1 | 3 | 0.5
CCCc1cc(C(=O)N(C2CCCCC2)C2CCCCC2)no1 | 14 | 1% | 12 | 25% | · | -4 | -2.3
Cc1nn(CC(=O)Nc2ccc3c(c2)nc(CN2CCCC2)n3C)c(=O)c2ccccc12 | -6 | 8% | -2 | -3.8%[38.3 µM] | -13 | -19 | -3.2
C[C@@H]1CN([C@H](C)CO)S(=O)(=O)c2ccc(C#C[C@@H](C)O)cc2O[C@@H]1CN(C)Cc1ccc(-c2ccccc2)cc1 | -7 | · | -9 | 2.9% | · | -6 | -9.3
CC(=O)c1ccc(NC(=O)C(C)N2CCN(C/C=C/c3ccccc3)CC2)cc1 (stereo not given) | 23 | 8% | -6 | -1.9% | -14 | -24 | 5.1
O=C(NCCc1ccc(Cl)cc1)c1cccnc1 | 3 | -2% | 5 | 1.2% | 5 | -5 | -2.0
O=C(NCc1ccco1)c1cccs1 | -3 | 0% | -11 | -1.0% | 4 | -28 | 0.6
CC(C)(C)OC(=O)NN1CC(=O)N2[C@@H](Cc3c([nH]c4ccccc34)C2(C)C)C1=O | 4 | 4% | -5 | 7.3% | -1 | 10 | -2.9
Cc1cc(OCCN2CCC(Cc3ccccc3)CC2)ccc1[N+](=O)[O-] | -23 | -24% | ? | ? | -7 | -9 | 1.7
O=C(O)CC/C(=N\Nc1ccc(Cl)cc1)c1cccs1 | 7 | 7% | 10 | -0.6% | 4 | -2 | -0.3
Cc1ccc(S(=O)(=O)Oc2ccccc2)cc1 | 36 | · | 17 | 9.8% | · | 0 | 3.0
CCC1CCCCN1C(=O)C(=O)c1cn(CC(=O)N(CC)CC)c2ccccc12 (stereo not given) | 11 | 10% | 8 | -1.0% | 5 | -9 | -4.4
CCC(=O)NCc1ccc(-c2nc3ncccc3o2)cc1 | -1 | 2% | 0 | 1.5% | -4 | 0 | -3.1
COc1cccc(-c2ccc(NC(=O)C3CCCN(Cc4cc(C)[nH]n4)C3)cc2)c1 (stereo not given) | -13 | 1% | -20 | 1.8% | -1 | -11 | -0.8
COC(=O)c1ccc(C2C(C(=O)c3cc4ccccc4o3)=C(O)C(=O)N2CCN2CCOCC2)cc1 (stereo not given) | 2 | 14% | -2 | 0.2% | 3 | -12 | 1.0
Cn1cccc1C(=O)NNC(=O)COc1ccccc1F | 2 | 4% | 5 | -0.9% | 2 | 2 | 2.1
CCN(CC)CCN1C(=O)c2oc3ccccc3c(=O)c2C1c1ccc(F)cc1 (stereo not given) | 0 | -1% | 0 | 8.7%[38.3 µM] | 15 | -16 | -3.4
CCOc1ccc(NC(=O)Nc2cc(OCC(F)(F)F)cc(OCC(F)(F)F)c2)cc1 | -5 | -2% | 1 | ? | -15 | 0 | -0.2
Cc1cccc(CC(C)NC(=O)c2oc3c(F)cccc3c2C)n1 (stereo not given) | -3 | 8% | -1 | 4.5% | -23 | -21 | -9.0
COc1cc(/C=C/C(=O)OCC(=O)Nc2ccc(C)cc2[N+](=O)[O-])ccc1O | ? | -17% | 3 | 5.7% | 16 | -6 | -4.3
COc1ccc(NC(=O)c2cc(C3CCCCN3C(=O)c3ccc(Cl)cc3)on2)c(C)c1 (stereo not given) | -25 | · | 5 | 2.5% | · | -1 | 3.0
C=CCN1C(=O)/C(=C\c2ccco2)C(C(=O)OC)=C1C | 9 | 20µM* | -2 | 1.5% | 16 | -21 | -2.3
COc1ccc(C2CC(c3ccccc3Br)=NN2c2ccc(S(N)(=O)=O)cc2)cc1 (stereo not given) | 16 | · | 23 | 4.0% | · | 0 | -3.2
Cc1cccc(OCC(=O)NNC(=O)c2cccs2)c1 | 7 | 26% | 7 | 1.3% | -14 | -5 | 0.5
CCOc1ccc(N/C=C/C(=O)c2cc(OC)c(OC)c(OC)c2)cc1 | -19 | -7% | -8 | 2.8% | -7 | -2 | -0.5
CCOC(=O)CC(NC(=O)c1cccc2c1C(=O)N(Cc1cccnc1)C2)c1ccc(OC(C)C)cc1 (stereo not given) | 4 | -7% | 4 | 1.6% | -4 | 12 | -0.3
O=C(c1cccs1)N1CCN(Cc2nc3ccccc3c(=O)[nH]2)CC1 | 1 | 7% | -7 | -1.3% | -5 | -3 | -4.1
O=C(Cc1ccc(Cl)cc1)N/N=C/c1ccccc1 | · | 9% | 0 | 6.2% | -11 | -6 | -1.7
FC(F)(F)c1cccc(Cc2noc(CN3CCCC3)n2)c1 | -2 | 1% | -3 | 5.0% | -8 | -9 | -3.7
O=C1/C(=C\c2ccco2)CCC/C1=C\c1ccco1 | -1 | 11µM* | -29 | ? | 0 | -5 | -3.2
O=C1c2ccccc2C(=O)N1CC(O)COCc1ccccc1 (stereo not given) | -5 | -3% | 0 | · | 1 | -1 | -1.8
C/C(=N\NC(=O)COc1ccc(C(C)(C)C)cc1)c1cc2ccccc2o1 | -4 | 12% | 1 | 7.5% | -7 | 2 | -1.9
CN(CC(=O)Nc1ccc(Cl)cc1)C(=O)CNC(=O)c1ccc2c(c1)OCO2 | 1 | · | 0 | 1.6% | -9 | -8 | -2.9
C=CCn1c(CCNC(=O)c2ccco2)nc2ccccc21 | -14 | 1% | 2 | -1.1% | 8 | 2 | -5.4
CCCCCCCC(=O)O | 7 | 3% | 2 | 0.4% | · | -9 | -5.6
O=C(Nc1ccccc1)c1ccc(Br)c(S(=O)(=O)Nc2cccnc2)c1 | 0 | -2% | -7 | -0.7% | 6 | 0 | -0.6
